Screens (PubChem)
D2 agonist – human D2 receptor agonism in beta-arrestin assay; P14416; DiscoveRx PathHunter D2 beta-arrestin, luminescence, 90 min; 100% = 57 uM dopamine signal; activation, % (concentration not given with the values); actives 0.084% (n = 360,000); in the data active = activation above about 40%; inconclusive = about 15% to 40%; inactive = below about 15%; further: compound concentration not given in the record; the text of the record calls up to 30% inactive
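DiscoveRx PathHunter D2 beta-arrestin cells (2,100/well) attached overnight, then compound-stimulated 90 min at 37 C in HBSS/10 mM HEPES/0.1% Tween-20 buffer; beta-galactosidase complementation read by luminescence after 1 h at ambient temperature. Dopamine 57 uM final (EC100) as control.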
D2 PAM – positive allosteric modulators of human D2 dopamine receptor | P14416 | DiscoveRx D2 beta-arrestin cells, luminescence, 90 min; 100% = 57 uM dopamine signal | potentiation, % (concentration not given with the values) | actives 0.23% (n = 360,000) | AID 624464; active = potentiation of 50% or more; inconclusive = 30% to 50%; inactive = 30% or less;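 further: compound concentration not given in the record; tested on top of an EC20 dose of dopamine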
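PathHunter beta-arrestin assay in DiscoveRx D2 cells. Compounds were added with an EC20 of dopamine (50 nM final) for 90 min at 37 deg C. Luminescence was read 1 h after detection reagent, with 57 uM dopamine as the EC100 control.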
gsp agonist – activates gsp, the McCune-Albright syndrome mutation. gsp mutant cells, cAMP HTRF, 30 min; control for the full effect not named in the record. Potency, µM (highest dose often 76.9 µM), for inactives: top-dose activation (cAMP increase), actives largely listed as activators. actives 0.13% (n = 340,000). AID 624287; active = well fitted activation curve with a large enough effect; inconclusive = small, poorly fitted or top-dose-only effect, or another doubt; inactive = no such curve, though single readings can be large or run the other way; cell line not stated here;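 further: phosphodiesterase inhibitor Ro 20-1724 added with compounds to block cAMP breakdown; potency means the concentration at half of the fitted maximal effect; nearly all actives have a fitted effect of over 60% in size; about a fifth of the inactives were tested at one dose only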
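Cells stably selected in G418 were plated at 2000/well, grown 16-24 hr, then given compounds in DMSO with the PDE inhibitor […] (300 uM solution added) for 30 min at 37C; cAMP was read by HTRF.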
CtBP-E1A blk – blocks the CtBP interaction with E1A; actives 0.49% (n = 340,000); AlphaScreen GST-E1A/His-CtBP binding, 1536-well; hits give low values; control for the full effect not named in the record; activity change, % (concentration not given with the values); in the data active means activity change below about -65%; inconclusive means about -30% to -65%; inactive means above about -30%; further: on the % scale 0 is the no-effect control and ±100 the full control effect
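GST-E1A and His-tagged CtBP (125 nM each as 5X stock) were preincubated with pin-transferred compound for 2 h at 37 °C in the dark, then glutathione donor and nickel acceptor beads were added for 1 h before AlphaScreen reading.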
gsp antagonist – antagonizes gsp, the McCune-Albright syndrome mutation; gsp-mutant cells, cAMP HTRF, 30 min; control for the full effect not named in the record; Potency, µM (titrated, usually from 76.9 µM), inactives show at the highest dose activity change, negative = inhibition, usual class: inhibitors; actives 0.4% (n = 340,000); AID 624288; active = falling curve of any shape with a large fitted effect; inconclusive = falling curve, mostly with a smaller effect; inactive = flat or rising curve; cell line not stated here;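 further: intracellular cAMP measured with PDE inhibitor Ro 20-1724 present during compound exposure; potency means the concentration at half of the fitted maximal effect; on the % scale 0 is the no-effect control and ±100 the full control effect; nearly all actives have a fitted effect of over 65% in size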
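Cells in G418 medium, seeded 16-24 h, 37C; buffer exchange to DPBS + 1 mM CaCl2, 0.5 mM MgCl2, 0.05% BSA; cpds in DMSO + […] (300 uM stock), 30 min 37C; HTRF cAMP detection.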
Six1-Eya2 blk – inhibitors of human Six1/Eya2 interaction; Q15475+O00167; AlphaScreen GST-Six1/His-Eya2 binding, biochemical; hits give low values; control for the full effect not named in the record; activity change, % (concentration not given with the values); actives 0.56% (n = 360,000); in the data active = activity change below about -65%; inconclusive = about -30% to -65%; inactive = above about -30%; further: on the % scale 0 is the no-effect control and ±100 the full control effect
Target sequence (O00167 whole entry, looked up): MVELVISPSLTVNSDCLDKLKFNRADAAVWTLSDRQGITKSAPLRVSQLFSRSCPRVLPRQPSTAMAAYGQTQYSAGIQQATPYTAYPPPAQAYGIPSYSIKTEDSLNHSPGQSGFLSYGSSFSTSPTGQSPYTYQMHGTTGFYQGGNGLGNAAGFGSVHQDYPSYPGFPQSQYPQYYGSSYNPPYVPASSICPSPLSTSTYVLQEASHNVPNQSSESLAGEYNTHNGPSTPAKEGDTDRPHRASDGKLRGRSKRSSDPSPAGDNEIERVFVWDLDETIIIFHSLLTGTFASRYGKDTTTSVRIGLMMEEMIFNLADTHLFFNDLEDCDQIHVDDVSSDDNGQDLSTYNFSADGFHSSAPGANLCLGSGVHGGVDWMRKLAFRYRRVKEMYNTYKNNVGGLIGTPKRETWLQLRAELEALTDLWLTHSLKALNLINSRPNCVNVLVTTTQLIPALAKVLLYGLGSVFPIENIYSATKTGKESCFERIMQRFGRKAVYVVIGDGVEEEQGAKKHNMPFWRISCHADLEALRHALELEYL
Target sequence (Q15475 whole entry, looked up): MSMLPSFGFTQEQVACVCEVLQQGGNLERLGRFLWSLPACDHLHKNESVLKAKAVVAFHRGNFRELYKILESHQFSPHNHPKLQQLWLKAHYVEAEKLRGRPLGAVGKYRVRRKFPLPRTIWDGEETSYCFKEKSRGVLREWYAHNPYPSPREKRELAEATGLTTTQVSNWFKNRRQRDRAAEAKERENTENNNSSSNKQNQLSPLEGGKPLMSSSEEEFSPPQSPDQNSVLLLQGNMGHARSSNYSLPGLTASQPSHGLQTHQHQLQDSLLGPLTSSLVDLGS
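AlphaScreen luminescence read after one hour at 37 °C in darkness. Pin-transferred compounds met GST-Six1 and His-Eya2 protein (5X stock 250 nM/500 nM) plus glutathione donor and Ni-chelate acceptor beads (5X, 50 ug/mL).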
Numbers without * were called inactive; ? = inconclusive; · = not tested or not shown; [ ] = another dose, or the depositor's remark.

SMILES | D2 agonist | D2 PAM | gsp agonist | CtBP-E1A blk | gsp antagonist | Six1-Eya2 blk
O=C(CCCn1c(=S)[nH]c2cc3c(cc2c1=O)OCO3)N1CCN(c2ccc(F)cc2)CC1 | 0.6 | -20 | -4% | -11 | -5% | -7
Cc1ccc2c(c1)N(CCC(=O)NC1CC1)C(=O)C(C)O2 (configuration not stated) | -0.8 | -19 | -25% | 0 | 7% | 0
CC1CC(=O)c2cnc(NCC3CCCO3)nc2C1 (configuration not stated) | -3.3 | 7 | 19% | 0 | 4% | -2
Cc1cnc(C(=O)NCC(=O)Nc2ccccc2Br)cn1 | -4.0 | -21 | 39%[15.4 µM] | 6 | -1% | -16
O=C(Nc1ccccc1)N(CCc1nc2ccccc2[nH]1)C1CCCC1 | -2.0 | -14 | 16% | -15 | -12% | -1
COc1ccccc1CN1CC(C(=O)N(CCO)Cc2cccs2)CCC1=O (configuration not stated) | -2.8 | 4 | -2% | 9 | 1% | 5
Cc1ccc(NC(=O)CN(C)C(=O)Cn2cc(C(F)(F)F)ccc2=O)cc1 | 4.1 | -13 | -5%[15.4 µM] | 6 | 11% | 5
O=C1CCC[C@@H]2CC(N3CCCCC3)C[C@@H]3CCN1[C@H]23 (some centres not stated) | 1.7 | · | · | 7 | 9% | 6
O=S(=O)(Nc1nc2ccccc2nc1-[n+]1ccccc1)c1ccc(Cl)cc1 | -1.8 | -6 | 0% | 7 | 14% | 5
COCCCNC(=O)C[C@H]1C[C@H](C(=O)N(C(C)C)C(C)C)[C@@]2(C)c3[nH]c4cc(-c5ccco5)ccc4c3CCN2C1=O | 1.5 | 1 | · | 21 | -13% | 12
O=C(c1ccccc1)c1ccncc1 | -3.5 | -11 | -15% | 3 | -13% | -1
CCOC(=O)CNC(=O)N1CCCC(Cc2ccccc2)(C(=O)OCC)C1 (configuration not stated) | 2.3 | -3 | 3% | -8 | 4% | 14
CCCCNS(=O)(=O)c1ccc(NC(=O)C2CCCO2)cc1 (configuration not stated) | -1.8 | -6 | 5% | 6 | -1% | 1
COc1cc2c(cc1NC(=O)c1cc(-c3ccncc3)nc3ccc(C)cc13)oc1ccccc12 | -1.6 | -10 | 7% | 0 | 2% | -1
CCC(C)NC(=O)C(=O)NCc1ccccn1 (configuration not stated) | -0.7 | -6 | 15%[15.4 µM] | 2 | 6% | 10
N/C(Cc1ccc([N+](=O)[O-])cc1)=N\OC(=O)c1ccccc1F | ? | 153* | -6%[15.4 µM] | 7 | 12% | 1
O=C(O)CSCC(=O)N1CCN(c2nc3cc(Cl)ccc3s2)CC1 | -1.5 | -2 | 10% | 4 | 7% | -2
CC(NC(=O)COC(=O)c1ccc2ccccc2n1)C1CC2CCC1C2 (configuration not stated) | -5.0 | 10 | -2%[15.4 µM] | 0 | · | -1
Cc1ccc(NCc2n[nH]c(=S)n2-c2ccccc2)c(C)c1 | -7.1 | -15 | -13% | -4 | -5% | 2
NNc1cc([N+](=O)[O-])cc2c1C(=O)N(Cc1ccccc1)S2=O (configuration not stated) | -3.8 | -1 | -1% | · | -21% | -5
CCOC(=O)CNC(=S)N(Cc1ccccc1)Cc1ccccc1F | 0.6 | -3 | -21%[15.4 µM] | 0 | -23% | 9
Cn1cc(CN2C[C@]3(C)C[C@H]2CC(C)(C)C3)c(-c2ccc3c(c2)OCCO3)n1 | 8.0 | -9 | -3% | 1 | -2% | -1
COc1ccc(C2NC(=O)NC(c3ccccc3)=C2c2nc3ccccc3s2)cc1 (configuration not stated) | -1.1 | -3 | 24% | -16 | -21% | -13
O=C1Nc2ccc(Br)cc2/C1=C/C1CC=CCC1 (configuration not stated) | -6.6 | -14 | -31% | -1 | 5% | -2
COc1ccccc1OCCNC(=O)c1cccc(S(=O)(=O)N2CCN(C)CC2)c1 | -6.2 | -14 | 26% | 11 | 1% | -2
COc1cccc(NC(=S)N(CCCN2CCOCC2)Cc2cn(C)c3ccccc23)c1 | -3.2 | -17 | 3%[15.4 µM] | -11 | -16% | ?
O=C(CSc1nc2ccccc2c(=O)[nH]1)c1ccc(O)cc1O | 4.7 | 8 | ? | -10 | -19% | -4
CCNC(=O)c1ccc(NS(=O)(=O)c2ccccc2)cc1 | 2.0 | 6 | -17% | 7 | 8% | 7
CC1=NN(c2nc(-c3ccc(C)cc3)cs2)C(=O)C1N=Nc1ccc(C(N)=O)cc1 (configuration not stated) | 6.8 | 0 | -20% | -4 | -11% | -14
C[C@H](CO)N1C[C@H](C)[C@@H](CN(C)S(=O)(=O)c2ccccc2)Oc2ccc(NS(=O)(=O)c3cn(C)cn3)cc2C1=O | 1.9 | · | · | 6 | 5% | -14

Full records, looked up by structure. Order of values: D2 agonist, D2 PAM, gsp agonist, CtBP-E1A blk, gsp antagonist, Six1-Eya2 blk
`O=C(CSc1nc2ccccc2c(=O)[nH]1)c1ccc(O)cc1O` is listed with 4.7, 8, ?, -10, -19%, -4
`O=C1CCC[C@@H]2CC(N3CCCCC3)C[C@@H]3CCN1[C@H]23` (some centres not stated) is listed with 1.7, ·, ·, 7, 9%, 6
`CCNC(=O)c1ccc(NS(=O)(=O)c2ccccc2)cc1` is listed with 2.0, 6, -17%, 7, 8%, 7
`CCCCNS(=O)(=O)c1ccc(NC(=O)C2CCCO2)cc1` (configuration not stated) is listed with -1.8, -6, 5%, 6, -1%, 1
`O=C(c1ccccc1)c1ccncc1` is listed with -3.5, -11, -15%, 3, -13%, -1

Later entries:
SMILES | D2 agonist | D2 PAM | gsp agonist | CtBP-E1A blk | gsp antagonist | Six1-Eya2 blk
Cc1ccc(-c2nn(CC(=O)Nc3cccnc3)c(=O)c3ccccc23)cc1 | -1.5 | -13 | -14% | 1 | -1% | -9
O=C(O)C1C2C=CC(C2)C1C(=O)NCCc1ccncc1 (configuration not stated) | -2.1 | -3 | 7% | 6 | 3% | 8
CC1CCCCN1C(=O)COc1ccc2ccc(=O)oc2c1 (configuration not stated) | 5.5 | -13 | -2%[15.4 µM] | 0 | · | -7
Cc1cc(C)c(NC(=O)C2CCCN2C)c(C)c1 (configuration not stated) | -0.8 | -3 | -21% | 4 | -10% | 0
CC1CCCCC1NC(=O)COC(=O)CN1C(=O)c2ccccc2C1=O (configuration not stated) | -0.8 | 0 | -15% | 9 | -17% | 3
Cc1cccc(C2c3c(n(C)c(=O)n(C)c3=O)N=C3c4ccccc4C(=O)C32)c1 (configuration not stated) | -7.2 | -5 | ? | -22 | -4% | -17
Cc1ccoc1C(=O)NCCNC(=O)c1occc1C | 3.1 | -5 | -24%[15.4 µM] | 5 | 2% | 1
Cc1ccc(-n2ncc3c(=O)n(-c4ccc(C)c(C)c4)c(-c4ccco4)nc32)cc1 | -5.5 | -4 | -7% | -5 | -25% | -8
COC(=O)CCCC1=CC2=CC(=O)C(C)(OC(=O)C3CCCC3)C(=O)C2=CO1 (configuration not stated) | 2.5 | -3 | · | -3 | -10% | -18
O=C(CN1C(=O)c2ccccc2C1=O)NCc1ccncc1 | -2.0 | -1 | -28% | 9 | 1% | 4
COc1cc(NC(=O)C(=O)NNC(=O)C2CCCCC2)c(OC)cc1Cl | 1.1 | -3 | -15%[15.4 µM] | 3 | -31% | 13
COc1cc(NC(=O)c2ccccc2[N+](=O)[O-])ccc1NC(=O)c1cc2ccccc2o1 | -4.8 | -23 | 24% | · | 22µM* | ?
O=[N+]([O-])c1ccccc1CNC(Cc1ccccc1)c1ccccc1 (configuration not stated) | -5.7 | -2 | -16% | 12 | -13% | -2
Cc1ccc(N(C(=O)c2csnn2)C(C(=O)NC2CCCCC2)c2cccnc2)c(C)c1 (configuration not stated) | -2.5 | -8 | 22%[15.4 µM] | 3 | 1% | 24
CC1Cc2ccccc2N1S(=O)(=O)c1cccc(C(=O)NCCCn2ccnc2)c1 (configuration not stated) | -1.7 | -20 | -32%[inhibitor][15.4 µM] | 6 | -8% | 15
COc1ccc(NC(=O)COC(=O)CN2C(=O)C3CC=CCC3C2=O)c([N+](=O)[O-])c1 (configuration not stated) | -1.5 | -31 | -2%[15.4 µM] | -3 | -13% | -10
Cc1cc(C)n2cnnc2n1 | -0.5 | -1 | ? | 6 | 8% | -2
CC1CCCCN1C(=O)c1ccc(C(=O)c2ccccc2)cc1 (configuration not stated) | 4.1 | 6 | 0% | 2 | -13% | 1
CC(C)Cn1cc(-c2cncc3nccn23)cn1 | 3.3 | -11 | · | ? | · | 4
CCn1nc(C)cc1C(=O)N1CCCC(N(C)CCc2ccc(OC)c(OC)c2)C1 (configuration not stated) | -3.2 | -14 | -9%[15.4 µM] | -5 | 5% | 2
CC12CCC(C(=O)N3CCCCCC3)(OC1=O)C2(C)C (configuration not stated) | -4.2 | 1 | 4% | 0 | 6% | 26
Cc1ccc(C(=O)NC(=S)NCC(=O)c2ccccc2)cc1 | 0.7 | -4 | ? | -3 | 22% | 0
CCOc1ccc(S(=O)(=O)NC(Cc2cnc[nH]2)C(=O)O)cc1 (configuration not stated) | -4.9 | 8 | -6%[15.4 µM] | 0 | 0% | -11
CC(=O)NC(CC(=O)NCC(c1ccco1)N(C)C)c1ccccc1 (configuration not stated) | -3.3 | -12 | 3% | -1 | 14% | -9
